# Yeast UUG start: yeast start codon fidelity modulation; S. cerevisiae UUG-firefly luciferase reporter, luminescence/redox ratio; activity score, % at 18.7 µM; 0.13% of 350,000 active;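 active means replicate mean at a twofold rise or more, about +100% in these data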;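 further: firefly luciferase made from a UUG start codon reports start codon fidelity; reporter light over untreated wells divided by growth signal over untreated wells; some hits fall short of that in this replicate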
# Rce1 inh: blocks yeast Ras-converting enzyme. AID 2563. calls only. yeast membranes, quenched prenylated peptide cleavage fluorescence. 0.27% of 290,000 active;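 active means fall in fluorescence gain of 50% or more versus controls, with final raw signal at or below 3038400; inconclusive means same 50% fall but final raw signal above 3038400; inactive means fall in fluorescence gain under 50%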;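 further: plate controls were neutral control wells for no effect and wells lacking membranes for full effect; tested at 10 µM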
# eIF4H inh: inhibitors of RNA binding by human eIF4H. Q15056. eIF4H fluorescence polarization binding assay. inhibition, % at 35 µM. 0.94% of 290,000 active. AID 2012;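 active means 50% or more with normal probe brightness, or confirmed in later tests; inconclusive means above 50% with abnormal brightness, or retests that disagree; inactive means below 50% or failed in later tests; about a fifth of its hits are not listed in these tables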;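 further: calls also rest on retests at 20 µM and on dose response follow-up; 0% = protein and probe with vehicle and 100% = probe without protein; strong numbers were not always called active; many hits fall short of the cut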
# PABP FP inh: PABP-poly(A) binding inhibition; AID 2014; 1% of 290,000 active; inhibition, % at 35 µM; PABP-poly(A) RNA binding, fluorescence polarization; P11940;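 active means 50% or more with normal probe brightness, or confirmed in later tests; inconclusive means above 50% with abnormal brightness, or retests that disagree; inactive means below 50% or failed in later tests; about a fifth of its hits are not listed in these tables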;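 further: calls also rest on retests at 20 µM and on dose response follow-up; controls were probe without protein and protein plus probe with vehicle; some compounds called inactive have numbers as strong as hits; many hits fall short of the cut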
# Target sequence (P11940 whole entry, looked up): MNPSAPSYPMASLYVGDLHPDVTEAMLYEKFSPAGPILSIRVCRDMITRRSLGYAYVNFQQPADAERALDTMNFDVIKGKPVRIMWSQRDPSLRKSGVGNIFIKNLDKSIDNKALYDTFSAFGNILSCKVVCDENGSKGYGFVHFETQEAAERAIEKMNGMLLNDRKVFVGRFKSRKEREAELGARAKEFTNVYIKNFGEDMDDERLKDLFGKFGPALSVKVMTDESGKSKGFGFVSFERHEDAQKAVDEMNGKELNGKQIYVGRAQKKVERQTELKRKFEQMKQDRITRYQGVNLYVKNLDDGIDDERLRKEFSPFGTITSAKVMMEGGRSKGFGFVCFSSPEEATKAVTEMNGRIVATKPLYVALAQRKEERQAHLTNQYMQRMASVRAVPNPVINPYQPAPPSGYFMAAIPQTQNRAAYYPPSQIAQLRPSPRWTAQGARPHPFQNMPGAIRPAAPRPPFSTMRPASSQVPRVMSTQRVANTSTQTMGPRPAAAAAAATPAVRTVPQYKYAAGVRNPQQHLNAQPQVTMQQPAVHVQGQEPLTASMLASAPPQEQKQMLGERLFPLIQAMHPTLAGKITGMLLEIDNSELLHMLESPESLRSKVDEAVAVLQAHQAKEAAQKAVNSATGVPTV
# HIV Env fusion: blocks HIV Env-driven cell-cell fusion. HeLa-JRFL Env/CEM21 cell fusion, luciferase. inhibition, % at 12.3 µM. 1.1% of 360,000 active. AID 651610;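 active means mean replicate inhibition score of at least 50 and every replicate individually at or above 50; inconclusive means only one of the two criteria met; inactive means mean below 50 and not all replicates reaching 50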;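 further: 0% = plate neutral controls and 100% = maraviroc near 300 nM; one replicate is shown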
# CSC inhib: blocks cancer stem cells | cancer stem cell-like cells viability, luminescence | inhibition, % at 7.5 µM | 1.1% of 300,000 active;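 active means mean at 75% or more and at least half the replicates too; inconclusive means mean and replicates disagree; tested in HMLE shEcad cells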;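 further: 0% = median of negative and 100% = median of positive control wells; the first replicate is given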
# MT1-MMP act inh: inhibitors of human MT1-MMP activation; P50281; HT1080 RFP-PRO-GFP cells, GFP/RFP ratio fluorescence, overnight; percent of plate control window, DMSO zero; GFP/RFP ratio change, % at 20 µM; 0.061% of 360,000 active; AID 651647;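 active means GFP/RFP ratio change of at least 30% with cell ATP level not reduced by more than half and red fluorescence within 50% of control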; further: strong numbers were not always called active
#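 Material – HT1080 RFP-PRO-GFP cells · Control set – DMSO wells and RFP-L50D-GFP cells · Incubation – overnight cell settling, then overnight compound exposure, 37 °C, 5% CO2 · Compound dosing – single-point 20 µM compound, 1% DMSO · Read-out – GFP/RFP fluorescence ratio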
# eIF4H inh retest: further read-out of eIF4H inh, marked with its call; inhibition, %; compound at 20 µM; confirmation average;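 mean of two retest wells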
# PABP FP inh retest: recorded beside PABP FP inh, whose call it bears; inhibition, %; compound at 20 µM; confirmation repeats;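 mean of two retest wells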
# MT1-MMP act inh RFP: second read-out of MT1-MMP act inh, no call of its own (marks repeat the call); RFP signal change, %; measured here: RFP expression control read;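 0 = vehicle wells; hits needed this value within 50% of zero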
# * = called active by the depositor; i = inactive; ? = inconclusive; . = no result given. Only part of the results is shown; count on the stated rates, not on these rows.
SMILES,Yeast UUG start,Rce1 inh,eIF4H inh,PABP FP inh,HIV Env fusion,CSC inhib,MT1-MMP act inh,MT1-MMP act inh RFP,others
CCN(CC)C(=O)CSc1nnc(-c2cc(-c3ccc(Cl)cc3)nc3ccccc23)o1,.,i,-7,43,.,18,1,1,
O=Cc1ccc(-n2cncn2)cc1,.,i,1,-7,-4,.,-3,1,
COc1cc(C(C[N+](=O)[O-])c2c(-c3ccccc3)cc3ccccn23)cc(OC)c1OC (centres undefined),-12,i,13,20,-52,10,-4,-4,
CCN(CC(=O)NCc1ccc(Cl)cc1)C(=O)Cc1ccccc1[N+](=O)[O-],-4,i,-10,3,15,-5,1,-4,
COc1ccc(CCNC(=O)C2CC3Cn4c(nc5cc(C)c(C)cc54)C3N2C)cc1 (centres undefined),-13,i,0,-8,10,5,3,2,
CCOC(=O)c1sc2ncnc(Nc3cccc(C(=O)O)c3)c2c1C,-16,.,0,-4,18,-13,-2,4,
CC1(C)CC(=O)C(C(C2=C(O)CC(C)(C)CC2=O)c2cccnc2)C(=O)C1 (centres undefined),-7,i,-5,2,.,9,6,-2,
O=C(COC(=O)c1ccncc1)NCc1ccccc1,-9,i,6,4,.,.,10,14,
Cc1ccc2c(C)ccc(O)c2n1,2,.,3,4,1,14,1,1,
CCc1ccccc1NC(=O)/C(=C/c1ccco1)c1ccccc1,-27,i,9,2,.,1,-7,0,
Cc1ccc(N2C(=O)C(Cl)=C(N3CCN(C)CC3)C2=O)c(C)c1,10,i,50,8,.,-19,-2,-4,
Cc1cc(C)n(CC(O)Cn2c(C)c(C)c3ccccc32)n1 (centres undefined),-19,i,11,12,.,-3,2,26,
COc1ccccc1C(=O)N/C(=C\c1cn(S(=O)(=O)N(C)C)c2ccccc12)C(=O)NCCN1CCOCC1,-21,i,-6,-8,.,0,0,0,
c1ccc(-n2nnnc2CN2CCOCC2)cc1,-2,.,3,4,11,-3,0,0,
CCOC(=O)C1(Cc2ccccc2)CCN(Cc2cccn2-c2cccnc2)CC1,.,i,-1,4,7,-5,-8,-3,
CC(C)[C@H](NC(=O)C1CCN(S(=O)(=O)c2ccccc2)CC1)C(=O)NCc1ccc(F)cc1,-11,i,-4,-2,-5,6,2,-3,
CC(=O)SC1CC(=O)N(c2c(C)cccc2C)C1=O (centres undefined),-17,i,-4,1,-25,-3,0,0,
O=C(CC1NCCc2ccccc21)Nc1ccccc1Cl (centres undefined),.,i,-5,8,-5,-13,-6,-2,
CCOc1ccc(N2C(=O)CC(N(O)c3ccccc3)C2=O)cc1 (centres undefined),-12,i,-1,2,-40,-8,-2,-4,
O=C(c1cccc(C(F)(F)F)c1)N1CCN(C2CCCCC2)CC1,-21,i,-7,4,11,-20,3,0,
COc1cccc(/C=C2\Sc3ccc(C(=O)NCc4cccnc4)cc3N(C)C2=O)c1,.,i,-7,?,-197,52,-4,-4,
Cc1nnc(NC(=O)CSc2nc3c(c(=O)n2C)SC(C)C3)s1 (centres undefined),-9,i,0,-19,25,-20,-1,0,
O=C(CCc1ccccc1)Nc1nnc(-c2cccs2)o1,-17,i,-6,2,-19,14,2,4,
CC(C)c1ccccc1NC(=O)COC(=O)CNC(=O)c1ccc(Br)cc1,.,i,-4,-9,-3,-6,2,9,
COc1cccc(/C=N/NC(=O)c2cccc([N+](=O)[O-])c2)c1OS(=O)(=O)c1ccccc1,-8,i,-7,-2,-10,-17,4,1,

# Three entries already listed, arranged by SMILES length, largest number first.
SMILES,Yeast UUG start,Rce1 inh,eIF4H inh,PABP FP inh,HIV Env fusion,CSC inhib,MT1-MMP act inh,MT1-MMP act inh RFP,others
CC(C)c1ccccc1NC(=O)COC(=O)CNC(=O)c1ccc(Br)cc1,.,i,-4,-9,-3,-6,2,9,
Cc1nnc(NC(=O)CSc2nc3c(c(=O)n2C)SC(C)C3)s1 (centres undefined),-9,i,0,-19,25,-20,-1,0,
Cc1ccc2c(C)ccc(O)c2n1,2,.,3,4,1,14,1,1,

# Next results.
SMILES,Yeast UUG start,Rce1 inh,eIF4H inh,PABP FP inh,HIV Env fusion,CSC inhib,MT1-MMP act inh,MT1-MMP act inh RFP,others
COc1ccc(/C=C/C(=O)NCCCN2CCCCCC2)cc1,-5,i,1,7,-8,-5,-7,-5,
Oc1ccccc1-c1ccn[nH]1,-10,.,.,.,-4,.,2,5,
CCc1ccc(NC(=O)CSc2nnc(-c3ccccn3)n2C)cc1,.,i,6,-9,.,0,6,3,
Cc1sc2ncnc(Sc3nnc4sc5ccccc5n34)c2c1C,.,i,2,7,.,3,.,.,
O=c1[nH]c(=S)n(-c2cccc(C(F)(F)F)c2)c(O)c1C=NCCN1CCNCC1,-13,i,-1,3,15,.,3,3,
CS(=O)(=O)N(CC(=O)NCc1ccccc1Cl)C1CCCCC1,2,i,4,-5,6,-11,3,7,
COc1cc(COCC(O)CN2CCN(Cc3ccccc3)CC2)cc(OC)c1OC (centres undefined),.,i,4,55,10,12,0,7,eIF4H inh retest=1;PABP FP inh retest=7
Cc1c(OCC(=O)N[C@@H](Cc2ccccc2)C(=O)O)ccc2c1oc(=O)c1ccccc12,-16,i,10,15,.,-11,1,7,
O=C(O)CCSCC(=O)c1ccc2c(c1)OCCO2,-26,i,-7,8,.,-10,-1,2,
Cc1ccc(NC(=O)CSc2nnc(Cc3cccn3C)n2-c2ccc(F)cc2)c(C)c1,-13,i,-15,-7,-28,-3,0,-2,
CC1CCc2nc3ccc(S(=O)(=O)N4CCC(C(=O)NCc5ccccc5Cl)CC4)cc3c(C(=O)O)c2C1 (centres undefined),1,i,8,25,4,-17,-12,-3,
Cc1ccc(CONC(=O)c2cccc(C)c2)cc1,-1,.,.,.,-4,.,4,0,
COc1ccc(S(=O)(=O)N2CCSC2C)cc1C (centres undefined),-9,i,-6,-5,-4,.,2,3,
O=C(O)C1CC=CCC1C(=O)NCc1ccccc1 (centres undefined),-16,i,3,-2,-21,-8,8,6,
CCN(CC)CCOC(=O)c1ccc(N/C=C(/C#N)c2nc(-c3ccc(OC)c(OC)c3)cs2)cc1,.,i,-21,-42,5,2,6,8,
CC1(c2ccccc2)NC(=O)N(CC(=O)Nc2cc3c(cc2Br)OCCO3)C1=O (centres undefined),.,i,.,.,-22,.,2,-1,
COC(=O)c1ccc(COC(=O)CNC(=O)c2ccc(-c3ccccc3)cc2)cc1,.,i,44,6,-22,-8,0,-1,
CC(C)(C)NC(=O)C(c1ccc(-c2ccccc2)cc1)N(C[C@H]1CC[C@@H]([C@@H]2CC[C@H](CO)O2)O1)C(=O)c1cccc(Cl)c1 (some centres undefined),6,.,.,.,-73,.,-11,-11,
CC(C)(C)CN1CCC(n2nccc2NC(=O)c2ccccc2Cl)CC1,-15,i,2,-7,10,-5,0,11,
COCCNC(C(=O)Nc1cc(Cl)cc(Cl)c1)c1ccccc1 (centres undefined),-12,i,-4,2,?,21,-3,-5,
COc1ccc(OCCSc2nnc(CC(=O)Nc3cccc(Cl)c3Cl)n2C)cc1,-21,i,-2,32,-5,-1,-49,-30,
COc1ccc(CCNC(=O)C(NC(=O)OCc2ccccc2)C(C)C)cc1OC (centres undefined),.,i,-4,-5,-9,27,-3,2,
O=C(Cc1cccs1)NCc1cccc(C(F)(F)F)c1,.,i,-2,52,-4,-10,6,0,eIF4H inh retest=-2;PABP FP inh retest=1
CCc1ccc(C2C(C#N)=C(N)SC(N)=C2C#N)cc1,.,i,?,?,.,16,-269,1,
COC1CCCN(C(=O)c2ccc(OC3CCN(CCc4ccccc4)CC3)cc2)C1 (centres undefined),.,i,-2,3,8,13,-2,1,
SMILES,Yeast UUG start,Rce1 inh,eIF4H inh,PABP FP inh,HIV Env fusion,CSC inhib,MT1-MMP act inh,MT1-MMP act inh RFP,others
CC1(C(=O)NS(=O)(=O)c2cccc(Cl)c2)CCN1C(=O)C1CC1 (centres undefined),2,.,.,.,6,.,-3,0,
CCCn1cc(CN2CCC(n3nccc3NC(=O)CCOc3ccccc3)CC2)c(C)n1,-5,i,-8,-1,3,4,-1,0,
O=C(O)CCNC(=S)Nc1cccc(F)c1,.,i,6,5,-6,-1,-1,-2,
COc1cc(/C=C/C(=O)OCC(=O)N2CC(C)OC(C)C2)ccc1OCC#N (centres undefined),-7,.,.,.,-3,.,3,7,
Cn1c2c(c(=O)n(C)c1=O)C(c1cccc([N+](=O)[O-])c1)Nc1ccccc1O2 (centres undefined),-1,i,11,-2,.,-4,2,1,
COC(=O)c1[nH]c2ccc(F)cc2c1NS(=O)(=O)c1ccc(OC)cc1,.,i,10,4,13,56,-3,-13,
Cc1ccc(/C=C(\NC(=O)c2ccccc2)C(=O)OCc2ccccc2)cc1,.,i,-14,-6,10,-9,-2,-5,
O=C(Cc1ccccc1)Nc1nccs1,-19,i,-11,4,0,-10,-3,-2,
O=C(Cn1cc([N+](=O)[O-])ccc1=O)NC1CCCCC1,-42,.,.,.,-4,.,0,0,
Cc1ccc2c(c1)c1nnc(SCC(=O)Nc3ccccc3C(F)(F)F)nc1n2CC(=O)O,.,i,1,-2,27,-5,-1,-2,
N#Cc1c(N2CCOCC2)nc(N2CCCCC2)c2c1CCN(C1CCCCC1)C2,.,i,43,68,.,2,.,.,eIF4H inh retest=-8;PABP FP inh retest=10
CCC(=O)NCCN1CCN(C(=O)CC)CC1,-15,i,-2,-2,-129,0,0,4,
C/C(=N\NC(N)=O)c1ccccc1,.,i,-2,-1,-26,-12,-1,3,
O=C(O)CCCN1C(=O)C2C3CC(C2C1=O)C1C(c2ccccc2)c2sc(=O)[nH]c2SC31 (centres undefined),.,i,0,5,9,-8,-2,7,
Cc1cc(C)cc(NC(=O)Cn2cc3c(n2)CCCCC3)c1,.,i,4,-9,.,-15,.,.,
Cc1ccc(C)c(OCC(=O)NCC2COc3ccccc3O2)c1 (centres undefined),13,.,.,.,.,-6,0,-1,
Cc1ccc(N=CC=C2OC(C)(C)C(C)(C)O2)c(C)c1,.,i,-1,7,22,25,5,1,
COc1ccc(Cl)cc1N(CC(=O)NCC(C)C)S(=O)(=O)c1ccc(C)c([N+](=O)[O-])c1,-7,i,-1,-6,-6,-17,2,6,
C/C(=N/NC(=O)CN1CCN(S(=O)(=O)c2ccc(Br)cc2)CC1)c1ccncc1,.,i,4,-2,3,.,-3,0,
CCOC(=O)N1CCC(NC(=O)CS(=O)(=O)Cc2nc(-c3ccc(C)cc3)oc2C)CC1,1,i,5,4,37,10,-4,-6,
COc1cccc(C2/C(=C(\O)c3ccc(OC)c(OC)c3)C(=O)C(=O)N2c2cc(C)on2)c1 (centres undefined),-3,.,-9,6,.,-36,-12,-3,
CSc1nsc(SCC(=O)Nc2ccc3c(c2)OCCO3)n1,-25,i,-20,20,-44,-2,-13,-5,
Cc1ccnc2nc(C(=O)NCc3cccs3)nn12,-12,i,-6,4,.,-4,5,10,
Cc1nc(C)n(CC(=O)N2CCCC(C(=O)c3ccc(C(F)(F)F)cc3)C2)n1 (centres undefined),.,i,-1,-16,14,-4,3,2,
C=CCNc1nc(NCCO)nc(N2CCCC2)n1,-7,i,-11,-2,-78,-4,3,6,
CC(=O)N1CCc2cc(S(=O)(=O)CCC(=O)O)ccc21,-7,i,5,2,.,7,-1,4,
COC(=O)c1ccc(-n2c(C)cc(C(=O)CSc3ccc(NC(C)=O)cc3)c2C)cc1,.,i,-5,-9,9,-7,-2,-9,
COCCNC(=O)C1CCCN(C(=O)c2cc(C)n(C(C)(C)C)n2)CC1 (centres undefined),-10,.,.,.,-38,.,4,2,

# Source: PubChem BioAssay
